NPYLR7 ag: agonists of mosquito NPYLR7 receptor, primary screen, cell-based, Aedes aegypti, calcium fluorescence, mosquito biting behavior | AID 1259423, 2018 | Aedes aegypti neuropeptide Y-like receptor 7 (NPYLR7) | HEK293T NPYLR7/Galpha15, GCaMP6s calcium fluorescence | activation, % at 10 µM | 270,000 tested, 0.15% active; in the data active = activation above about 40%;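 also: 0% = vehicle and 100% = reference agonist at the receptor; some compounds past the cut are filed as inactive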
NPYLR7 ag max-min: recorded beside NPYLR7 ag, whose call it bears; activation, %; measured here: Max-Min RFU normalised activation; some inactives read as strong as hits;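 span of the calcium signal over five minutes; 0% = vehicle and 100% = native peptide agonist; compound fluorescence can raise it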
Active calls of the source: *; & = joins results of further samples. The list is partial; rates above refer to the full screens.

Compound | NPYLR7 ag | NPYLR7 ag max-min
CC(Cl)C(=O)N1CCC(Cc2ccc(C(F)(F)F)cc2)CC1 (centres undefined) | 0 | 12
OC1CCN(Cn2[nH]c(-c3ccc(Cl)cc3Cl)nc2=S)CC1 | 6 | 3
O=c1c2sc3cccc(F)c3c2nc2n1CC(NCc1ccccc1)OC2 (centres undefined) | -2 | -8
CC(=O)Nc1ccc(SCc2cccc(F)c2)nn1 | 0 | -2
CC(C)CN1CCC(C(=O)NC(c2ccccc2)c2ccsc2)CC1 (centres undefined) | 3 | 0
O=C(O)c1ccccc1-c1nccn1C1CCCC1 | 3 | 0
O=c1[nH]cnc2c(Cl)cc(Cl)cc12 | -10 | -13
COC(=O)CCCNC(=O)C=Cc1csc(-c2ccc(F)cc2)n1 | 1 | 4
COC(C(=O)Nc1ccnn1C1CCN(c2ncccn2)CC1)c1ccccc1 (centres undefined) | 23 | 9
CS(=O)(=O)c1ccc(Cl)c(NCC2CCC=CO2)c1 (centres undefined) | 0&6 | -3&2
N#Cc1nc(-c2ccc(COc3ccc(Cl)cc3)o2)oc1NCCN1CCOCC1 | -1 | 9
CCOc1ccccc1NC(=O)CSc1nc(=O)n(CCO)c2c1CCC2 | -4 | -16
Cc1nc2sccn2c(=O)c1CCN1CCC(=C(c2ccccc2)c2ccc(F)cc2)CC1 | 6 | -10
CCC(C)c1ccccc1NC(=O)CN1c2cccc3cccc(c23)S1(=O)=O (centres undefined) | 5 | 4
COCCC(=O)Nc1ccc2c(c1)CN(Cc1cccn1-c1ccccn1)CC2 | -7 | -9

Structural class, those above with sulfur
Compound | NPYLR7 ag | NPYLR7 ag max-min
OC1CCN(Cn2[nH]c(-c3ccc(Cl)cc3Cl)nc2=S)CC1 | 6 | 3
O=c1c2sc3cccc(F)c3c2nc2n1CC(NCc1ccccc1)OC2 (centres undefined) | -2 | -8
CC(=O)Nc1ccc(SCc2cccc(F)c2)nn1 | 0 | -2
CC(C)CN1CCC(C(=O)NC(c2ccccc2)c2ccsc2)CC1 (centres undefined) | 3 | 0
COC(=O)CCCNC(=O)C=Cc1csc(-c2ccc(F)cc2)n1 | 1 | 4
CS(=O)(=O)c1ccc(Cl)c(NCC2CCC=CO2)c1 (centres undefined) | 0&6 | -3&2
CCOc1ccccc1NC(=O)CSc1nc(=O)n(CCO)c2c1CCC2 | -4 | -16
Cc1nc2sccn2c(=O)c1CCN1CCC(=C(c2ccccc2)c2ccc(F)cc2)CC1 | 6 | -10
CCC(C)c1ccccc1NC(=O)CN1c2cccc3cccc(c23)S1(=O)=O (centres undefined) | 5 | 4

The list goes on:
Compound | NPYLR7 ag | NPYLR7 ag max-min
c1n[nH]c(SCCNC2CCC3(CCNCC3)CC2)n1 | 8 | 6
O=C(NCCCn1nc(-c2ccco2)ccc1=O)c1ccccc1 | -2 | -4
Cc1cnc(N2CCCN(C)CC2)nc1N1CCCN(C)CC1 | 0 | 1
CCOC(=O)c1ccccc1N(CC)C(=O)Cc1csc(C)n1 | 0 | 1
CCc1ccccc1NC(=O)CNC(=O)c1ccc(Cl)c(N2CCCC2=O)c1 | 8 | 2
Cc1ccccc1CN1CCN2C=C(C(=O)Nc3ccc(-n4ccnc4)cc3)OC2=NC1=O | 0 | -2
COCCn1c(N2CCN(c3cccc(Cl)c3)CC2)nc2c1c(=O)n(C)c(=O)n2C | 0 | -4
O=C(NCC1CCC1)C1CCN(c2ccc3cccc(O)c3n2)CC1 | 17 | 16
CCC(C)N(Cc1ccc(OC)c(OS(=O)(=O)c2ccc(F)cc2)c1)C(=O)C(C)C (centres undefined) | 15 | 7
CCN(C)c1c(C)nc2c(OCCOc3ccc(F)cc3)cccn12 | -13 | -18
CC1CCC(NC(=O)CN2CCCN(c3ccc(C#N)cc3)CC2)CC1 (centres undefined) | 8 | 3
COc1ccc(Cn2cnc3c4ccccc4n(CC(=O)Nc4ccc5c(c4)OCO5)c3c2=O)cc1 | 3 | -2
CCc1ccc(CN2CCCC(CNC(=O)C=C(C)C)C2)nc1 (centres undefined) | -2 | -1
COc1cccc2c1OCCCN(c1nc(C)nc3c1cnn3C)C2 | 25 | 10
COC(=O)Cn1c(SCC(C)C)nc2ccccc2c1=O | 13 | 6
O=c1c2cc3c(=O)n(-c4ccncc4)ccc3nc2ccn1CCN1CCOCC1 | 3 | 4
CCCc1ccc(S(=O)(=O)Nc2ccc(F)cc2C(=O)O)cc1 | 1 | -1
COc1cccc(C(N)=O)c1OCc1ccc(Cl)cc1Cl | 1 | 0
CN(CCC#N)C(=O)COC(=O)c1ccc(F)c(S(=O)(=O)N2CCCCC2)c1 | 2 | 3
COc1ccc(/C=N\OCc2nc3c4c(ncn3n2)Oc2cc(O)ccc2C4c2ccccc2)cc1 (centres undefined) | -3 | -7
CCc1nc2c(OCc3c(C)noc3C)cccn2c1N(C=O)Cc1ccc(OC)cc1 | -6 | -7
COc1ccc(C(=O)N2CCC(n3c(=O)oc4ccc(Cl)cc43)CC2)c(OC)c1 | -4 | -1
Cc1cc(CC(C)NC(=O)c2cn[nH]c2-c2cccc(F)c2)n[nH]1 (centres undefined) | 12 | -7
COc1cc(Nc2cc3c(cn2)nc(C)n3C)cc(OC)c1OC | 6 | 5
COc1ccc(CCNC(=O)Nc2cccc3[nH]c([C@@H]4O[C@H](CO)[C@@H](O)[C@H](O)[C@H]4O)nc23)cc1Br | 17 | 21
COc1ccc(Cl)cc1C(=O)N1CCCC1C(=O)N(C)Cc1cccc(Cl)c1 (centres undefined) | 6 | 4
CCc1cc(C(=O)N2CC(=O)N(C3CCCCC3)CC(OCc3ccccc3)C2)no1 (centres undefined) | 3 | -5
CCCN1C(=O)c2ccccc2NC1c1cc(C(=O)OC)c(C)o1 (centres undefined) | 1 | 1
CCOCCCn1c(SCc2ccc(Cl)c(C(F)(F)F)c2)nc2cc(C(=O)OCC)ccc21 | 6 | 4
Cc1cnn(CC(=O)NCc2ccc(N3CCCCC3)cc2)c1 | 11 | 13
CSC1=NCCCN1 | 1 | -1
CCS(=O)(=O)Oc1ccc(CN(CC(C)C)C(=O)c2ccc3ccccc3c2)cc1 | -6 | -8
Cc1cccnc1CN1CCN(Cc2cnc(-c3cccs3)nc2)CC1 | 5 | 3
O=C(O)CC(NC(=O)CC12CC3CC(CC(C3)C1)C2)C(F)(F)F (centres undefined) | 5 | 3
NC(=O)NNC(=S)NC1CCCCC1 | 5 | 13
COc1cc(N=c2scc(-c3ccccc3)n2Cc2ccc(Cl)cc2)cc(OC)c1 | -4 | -11
Cc1ccccc1C(=O)N1C(C(=O)NCc2cccc(C(F)(F)F)c2)COC12CCN(C(=O)Cc1cccs1)CC2 (centres undefined) | 1 | 7
CCOc1ncccc1CN1CCCC(C(=O)N2CCC[C@H]2C(=O)OCc2ccccc2)C1 (some centres undefined) | 0 | -4
COCC(=O)N1CCCN(Cc2cc(F)ccc2-n2cccn2)CC1 | 24 | 11
COc1cc(F)ccc1N(C)C(=O)CCn1ccnn1 | -5 | -7
COc1ccc2ccccc2c1-c1nc2ccc(Br)cc2c(=O)n1Cc1ccccc1 | -1 | -2
Cc1ccc(OCc2occc2C(=O)N2CC[C@H](CO)[C@@H](O)C2)cc1 | 8 | 7
Clc1ccc(/C=C/CNc2nn[nH]n2)cc1 | 2 | 0
Nc1nnc(SCc2cccc(F)c2)s1 | 2 | -5
Cn1cc(C(=O)NCc2c(F)cccc2F)c2nn(-c3ccccc3)c(=O)c-2c1 | 13 | 7
O=c1[nH]nc(Cc2ccncc2)c2ccccc12 | 8 | 7
CCN(CC)Cc1cnc2c(C(=O)NC(C)c3ncc[nH]3)cnn2c1 (centres undefined) | 1 | -3
Cc1c(C#N)c2nc3ccccc3n2c(=O)c1=CC1C(=O)NN(c2cccc(Cl)c2)C1=O (centres undefined) | 1 | 1
COc1cc(CNC2CCC3CCCCC3C2)cc(OC)c1OC (centres undefined) | 7 | 2
CNc1nc2cnc(Nc3ccccc3)cc2n1-c1cc(OC)c(OC)c(OC)c1 | 6 | -1
CC(=O)C1=C(C)Nc2ncnn2C1c1ccc(Cl)cc1 (centres undefined) | 7 | 13
CCN(CC)C(=O)[C@@H]1C[C@H](N)CN1C(=O)c1cccc2[nH]c(C)nc12 | 29 | 12
Cc1cc(C)nc(NNC(=S)NC2CC3CCC2C3)n1 (centres undefined) | 14 | 8
O=C(Nc1cc(Cl)cc(Cl)c1)c1occc1COc1ccccc1 | 3 | 25
O=C(C1=COCCO1)N(CCCN1CCOCC1)c1nc2ccccc2s1 | 1 | -4
Cc1cc(Cl)ccc1N1CCN(C(=O)c2ccc(Br)cc2)C(C)C1=O (centres undefined) | 0 | 4
COc1ccc(F)c(CN2CCC(N3CCC(O)CC3)CC2)c1Cl | 5 | 3
Cc1ccc(-n2cccn2)c(CN2CCC(n3nccc3NC(=O)C3CC3)CC2)c1 | 6&0 | 6&-1
CN(C)S(=O)(=O)c1ccc(C(=O)Nc2c3c(nn2CC(=O)NCc2ccco2)CSC3)cc1 | -4 | 3
CC(C)S(=O)(=O)Oc1ccc(CN(Cc2ccc(F)cc2)C(=O)c2cccc(F)c2)cc1 | 15 | 3

Two compounds picked at random from the list so far:
Compound | NPYLR7 ag | NPYLR7 ag max-min
COC(C(=O)Nc1ccnn1C1CCN(c2ncccn2)CC1)c1ccccc1 (centres undefined) | 23 | 9
Cc1c(C#N)c2nc3ccccc3n2c(=O)c1=CC1C(=O)NN(c2cccc(Cl)c2)C1=O (centres undefined) | 1 | 1

Next structures
Compound | NPYLR7 ag | NPYLR7 ag max-min
O=C(c1cccc(F)c1)N1CCCC(OCC2CC2)C1 (centres undefined) | -16 | -12
COc1ccc2c(c1)CC(NCCOc1ccccc1F)CC2 (centres undefined) | 12 | 9
CC(C)COc1ccc(C(O)c2ccccc2)cc1 (centres undefined) | -6 | -4
Cc1ccc(-n2nc(-c3ccc(Cl)cc3)cc2NC(=O)c2ccc(F)c(C(F)(F)F)c2)cc1 | 0 | -8
Cc1cnn(CCC(=O)N2CCC(=O)N(CC3CC3)C(C(C)C)C2)c1 (centres undefined) | 2 | -18
COc1ccccc1C1=NN(C(=O)CN2CCC3(CC2)OCCO3)C(c2ccc(Cl)cc2)C1 (centres undefined) | 4 | 1
CN1CCN(C(=O)C(F)(F)C(F)(F)OC(F)(F)F)CC1 | -8 | -17
C=CCCC(O)CN(CC(=O)N1CCc2sccc2C1COc1ccc(C)cc1)CC1CCCO1 (centres undefined) | 8 | 10
O=C(Nc1ccc(S(=O)(=O)N2CCOCC2)cc1)c1cccc(N2CCCC2=O)c1 | 4 | -1
OCCSc1nc2c(n1-c1ccccc1)CCCC2 | 0 | -2
CC(C)CC(=O)N1CCN(c2cnn(-c3ccccc3)c(=O)c2Cl)CC1 | 29 | 21
N#Cc1cccc(S(=O)(=O)Nc2ccc(OC(F)F)cc2)c1 | 8 | 3
CN(C)c1ccc(C(=O)N2CCNC(=O)C2Cc2ccccc2)cc1 (centres undefined) | 13 | -6
CS(=O)(=O)c1ccc(CC(=O)N(Cc2ccccn2)c2nc3c(Cl)cccc3s2)cc1 | 25 | 22
O=S(=O)(c1ccccc1Cl)N1CCN(c2nccc(-c3ccc4c(c3)OCO4)n2)CC1 | 6 | 3
CCc1nc(C)c(C(=O)NCC2CCCN(Cc3ccco3)C2)o1 (centres undefined) | 7 | 3
C=CCN1CCC(C(=O)NC(c2ccc(F)cc2)c2ccccn2)CC1 (centres undefined) | 12 | 2
COc1ccc(CCNC(=O)Cn2ccn3nc(-c4ccc(Cl)cc4)cc3c2=O)cc1OC | 1 | -1
Oc1c2nccnc2c(O)n1-c1ccc(Br)cn1 | 6 | 6
CCN(CC(=O)NC(C)C)C(=O)/C=C/c1cc(Cl)ccc1OC(F)F | 17 | 17
Nc1nc(-c2ccccc2)c(-c2ccccc2)o1 | 0 | -1
CNc1nc2cnc(Nc3cccc(C(C)C)c3)cc2n1CCOC | 7 | -6
Cc1nnc(SC(=O)N2c3ccccc3Sc3ccccc32)s1 | 3 | 3
CCOC(=O)c1ccc2c(c1)nc(SCc1cc(C(F)(F)F)ccc1F)n2Cc1ccco1 | 1 | -4
Cc1cc(OCC(=O)Nc2cc(F)ccc2C)nc(N2CCCC2)n1 | 3 | 1
COc1ccc(-c2cc3c(=O)n(CC(=O)NCc4ccc(Cl)cc4)ccn3n2)cc1 | 6 | 4
CCOc1ccc(-n2c(Cn3cncn3)n[nH]c2=S)cc1 | -9 | -13
O=C(Cc1ccccc1)N(CCCN1CCOCC1)c1nc2c(F)cc(F)cc2s1 | -5 | -11
Cc1ccc(S(=O)(=O)NCC(c2ccc3c(c2)CCCN3C)N2CCOCC2)s1 (centres undefined) | 2 | -2
O=C1NC2(CCCCCC2)NN1c1ccc(Cl)cc1 | 3 | 2

Among those listed so far, these contain a COOH group.
Compound | NPYLR7 ag | NPYLR7 ag max-min
O=C(O)c1ccccc1-c1nccn1C1CCCC1 | 3 | 0
CCCc1ccc(S(=O)(=O)Nc2ccc(F)cc2C(=O)O)cc1 | 1 | -1
O=C(O)CC(NC(=O)CC12CC3CC(CC(C3)C1)C2)C(F)(F)F (centres undefined) | 5 | 3

More structures
Compound | NPYLR7 ag | NPYLR7 ag max-min
COc1cccc(C(c2c(O)cc(C)n(Cc3ccco3)c2=O)N2CCCCC2)c1 (centres undefined) | 12 | 2
O=C(CSc1nnc(-c2ccc(Cl)cc2)o1)c1ccc2c(c1)OCO2 | -2 | 19
O=C1CSC(c2ccc(Br)cc2)N1Cc1ccco1 (centres undefined) | -8 | -11
Fc1ccccc1-c1nnc(SCc2ccccc2Br)o1 | 3 | 11
O=C1CN(C(=O)c2c(F)cccc2Cl)CC(OCc2ccccc2)CN1Cc1cccnc1 (centres undefined) | 9 | -4
CC(O)(CC(=O)N1CCC2(CC1)Nc1ccccc1S(=O)(=O)N2)C(F)(F)F (centres undefined) | 0 | 26

High-throughput results deposited in PubChem BioAssay by Fisher Drug Discovery Resource Center.
